# Source: PubChem (ICCB-Longwood Screening Facility, Harvard Medical School)
# GIV Gai3 FP: blocks GIV peptide binding to rat Galpha-i3; P08753; Galpha-i3/FITC-GIV peptide fluorescence polarization, 90 min; active compounds read low; scaled: aluminum fluoride 0%, vehicle 100%; percent of control (FP), % (test concentration not listed); 210,000 tested, 0.42% active;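 active = replicate mean at 85% of control or lower, very high polarization wells dropped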;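 also: lower values mean more displacement of the GIV peptide from Galpha-i3; wells of about 15 µL received 100 nL stock; the first replicate is given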
# Target sequence (P08753 whole entry, looked up): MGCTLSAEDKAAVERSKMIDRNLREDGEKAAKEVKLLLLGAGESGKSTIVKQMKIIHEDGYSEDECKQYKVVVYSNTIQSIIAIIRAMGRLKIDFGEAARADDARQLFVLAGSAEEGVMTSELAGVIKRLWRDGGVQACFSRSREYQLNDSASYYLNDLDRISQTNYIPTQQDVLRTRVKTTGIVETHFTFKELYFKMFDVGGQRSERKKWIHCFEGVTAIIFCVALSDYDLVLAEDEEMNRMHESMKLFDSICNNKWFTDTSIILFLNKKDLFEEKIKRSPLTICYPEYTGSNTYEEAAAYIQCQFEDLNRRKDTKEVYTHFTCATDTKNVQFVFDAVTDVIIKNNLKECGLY
# Numbers without * were called inactive. Not all compounds are listed; count on the stated rates, not on these rows.
GIV Gai3 FP	molecule
103.7	O=C(Nc1ccc(F)cc1F)c1nnc(C2CCN(S(=O)(=O)c3cnc[nH]3)CC2)s1
92.2	Cc1nn2c(S(=O)(=O)N3CCCCC3)c(C)nc2s1
102.1	Cc1sc(C)c(S(=O)(=O)N2CCN(c3ccccc3)CC2)c1-c1cc(C(F)(F)F)on1
103.1	CCOC(=O)C1=C(C)NC(C)=C(C(=O)OCC)C1c1ccc(OC(=O)c2oc3ccccc3c2C)c(OC)c1
104.3	O=C(Nc1ccc2c(c1)OCO2)c1cccc(-c2cc(N3CCCC3)ncn2)c1
105.5	CN(CC(=O)NC1CC1)S(=O)(=O)c1cc2c(cc1Cl)NC(=O)CO2
125.2	CCOC(=O)C1=C(c2ccccc2)OC(N)=C(C#N)C1c1ccc(Br)s1 (configuration not stated)
124.0	N#CC1=C(N)OC2=C(CN(Cc3ccccc3)C/C2=C\c2ccsc2)C1c1ccsc1 (configuration not stated)
101.1	O=C(c1ccsc1)N1CCc2nc[nH]c2C1
-22.3*	CSc1ccc(C2C=C(c3ccc(Cl)s3)Nc3ncnn32)cc1 (configuration not stated)
114.8	O=C1C2=C(Nc3ccccc3SC2c2ccc(OCc3ccccc3)cc2)c2ccccc21 (configuration not stated)
98.4	CCc1onc(C)c1C1CCCN1C(=O)c1cc(C)on1 (configuration not stated)
103.8	CCN(CC)/C(Sc1ccccc1)=C(/C(Cl)=C(Cl)Cl)[N+](=O)[O-]
103.4	C=CCn1c(=O)c2sc(N(CC)CC)nc2n(CC(=O)Nc2cc(F)cc(F)c2)c1=O
107.2	N#CC1=C(N)Oc2n[nH]c(-c3ccccc3)c2C1c1cccc(OC(=O)c2ccco2)c1 (configuration not stated)
99.8	Cc1ccc(CNC(=O)C2CCCN(S(=O)(=O)Cc3ccc(F)cc3)C2)cc1 (configuration not stated)
113.0	COc1ccc(/C=C/C(=O)N2c3ccccc3C(C)(c3ccc(C)cc3)CC2(C)C)cc1 (configuration not stated)
100.9	CN1CCN(C(=O)C2CCCN(c3ncc(-c4cccc(F)c4)cn3)C2)CC1 (configuration not stated)
99.9	Cc1[nH]n(-c2ccccc2)c(=O)c1C(c1ccc(OCc2ccccc2)cc1)c1c(C)[nH]n(-c2ccccc2)c1=O
89.4	O=C(CN1C2=NCCCN2c2ccccc21)c1ccc(F)cc1

# More compounds
GIV Gai3 FP	molecule
113.9	O=C1CSC(c2cccc(Br)c2)N1c1cccc(C(F)(F)F)c1 (configuration not stated)
101.6	O=C(CC(c1ccccc1)c1ccccc1)Nc1ccc2c(c1)OCO2
101.8	CCC(=O)Nc1ccc(S(=O)(=O)N2CSC[C@@H]2C(=O)NCCc2csc(C)n2)cc1
106.8	Cc1nn(-c2ccccc2)c2ccn(CC(=O)NCCN3CCOCC3)c(=O)c12
109.3	COc1ccc(C(NC(=O)c2cc(OC)c(OC)c(OC)c2)c2cc(Cl)c3cccnc3c2O)cc1 (configuration not stated)
109.5	Nc1c(C(=O)NCCc2ccccc2)sc(=S)n1-c1ccccc1
120.1	O=c1c(C=Nc2ccc([N+](=O)[O-])cc2)c(C(F)(F)F)[nH]n1-c1ccc([N+](=O)[O-])cc1
102.2	Cc1nn(-c2ccc(Cl)cc2)c2sc(C(=O)N(C)c3ccc(F)cc3)cc12
104.8	Cc1ccc(N2C(=O)C3C4C=CC(CC4)C3C2=O)cc1Br (configuration not stated)
102.5	CSc1cccc(N2C=NS(=O)(=O)c3cccnc32)c1
107.1	CCOc1cc(C2C(C#N)=C(N)Oc3n[nH]c(-c4ccc(Cl)cc4)c32)cc([N+](=O)[O-])c1O (configuration not stated)
102.1	Cn1cnc2cc(-c3noc(-c4ccccc4Br)n3)ccc21
102.2	COc1ccccc1NC(=O)Cn1cnc2sc(C(=O)Nc3ccc(C)cc3Br)c(C)c2c1=O
108.8	Cc1ccc(C2C3=C(CCCC3=O)N(c3ccccc3)C(=N)/C2=C(/O)c2ccccc2)cc1 (configuration not stated)
102.9	COC(=O)CN1C(=O)CN(c2nc(N(C)C)nc(N(C)C)n2)C1=O
110.3	COCCNC(=O)c1ccc2c(=O)n(Cc3ccco3)c(SCC(=O)N3CCN(c4ccccc4)CC3)nc2c1
114.6	COc1ccccc1N(CC(O)Cn1c2ccccc2c2ccccc21)S(=O)(=O)c1ccccc1 (configuration not stated)
111.7	O=C1S/C(=C\c2ccc3c(c2)OCO3)C(=O)N1CNc1cccc(Br)c1
106.2	CCOc1ccc(C2=NN3C(C2)c2cccc(OC)c2OC3c2ccc(SC)cc2)cc1 (configuration not stated)
100.0	CCSc1nnc(NC(=O)CSc2nc3c(c(=O)n2-c2ccc(F)cc2)SCC3)s1

# Continued:
GIV Gai3 FP	molecule
99.7	COc1ccc(CCC(=O)NCCc2sc3nc(-c4ccc(OC)cc4)nn3c2C)cc1
116.6	N#CCCNCC1(c2ccccc2)CCCC1
105.2	O=C(NCCC1=CCCCC1)c1cccc(-c2nc(-c3ccc(F)cc3)no2)c1
105.0	CC1(C)CC(C)(c2ccc(O)cc2O)NC(=S)N1 (configuration not stated)
104.1	Cc1nc2c(nc(SCc3nc(-c4ccccc4)oc3C)n2C)c(=O)[nH]1
101.9	Cc1cccc(C)c1NC(=O)C1(N(C=O)CCc2c(C)[nH]c3ccccc23)CCCCC1
109.7	O=C(CCc1ccccc1)Nc1nnc(SCc2nnc(-c3ccccc3)o2)s1
100.5	Cc1ccc(C)c(NC(=O)Nc2ccc(CCc3nc4ccccc4n3C)cc2)c1
114.3	COc1ccc(/C=C2\C(=O)NC(=S)N(c3cccc(Br)c3)C2=O)c(OC)c1
124.5	NC(=O)c1n[nH]n2c1nc(=O)c1ccccc12
107.3	O=c1n(Cc2cccc(Br)c2)nc2c(S(=O)(=O)N3CCCCC3)cccn12
105.0	COc1ccccc1NC(=O)C1=C(C)NC(SCC(=O)Nc2nccs2)=C(C#N)C1c1ccc(C)o1 (configuration not stated)
103.9	O=C(CCn1c(N2CCCCC2)nc2ccsc2c1=O)N1CCN(c2ccccn2)CC1
106.5	Cc1ccc(C)c(NC(=O)NCc2nnc(C(=O)Nc3ccccc3)s2)c1
103.5	Cc1cccc(-c2cc(N3CCN(C(=O)c4cc(F)ccc4Cl)CC3)ncn2)c1
102.8	Cc1nc(-c2cc(S(=O)(=O)NCc3ccc(OC(C)C)cc3)c(C)s2)sc1C
98.8	OC1(c2ccc(F)cc2)CN(c2ccc(Cl)cc2)C2=[N+]1CCCS2 (configuration not stated)
108.6	COc1ccc(Br)cc1/C=C1\CC(C(C)(C)C)C/C(=C\c2cc(Br)ccc2OC)C1=O (configuration not stated)
107.3	O=C(CSc1nnc(NC(=O)c2cccs2)s1)Nc1cc(C(F)(F)F)ccc1Cl
107.0	O=C(NN=C1CSc2sc(=O)sc2SC1)C(=O)NNc1ccccc1

# Structures above shown as hits in GIV Gai3 FP.
GIV Gai3 FP	molecule
-22.3*	CSc1ccc(C2C=C(c3ccc(Cl)s3)Nc3ncnn32)cc1 (configuration not stated)

# Carrying on.
GIV Gai3 FP	molecule
104.3	COc1ccc(C2(CNC(=O)C(c3ccccc3)c3ccccc3)CCOCC2)cc1OC
116.3	O=CC12c3ccccc3C(c3ccccc31)C1C(=O)N(c3ccccc3Cl)C(=O)C12 (configuration not stated)
102.1	COc1ccc(/C=C(/NC(=O)c2cccc(C)c2)C(=O)NCCc2c[nH]c3ccccc23)cc1
109.4	O=c1cc(CSc2nc(NCc3ccc(Cl)cc3)c3ccccc3n2)nc2ccccn12
98.0	O=c1ccn(-c2ccc(Cl)cc2)nc1-c1nc(-c2ccc(Cl)cc2)no1
104.2	S=c1nc(-c2ccccc2)c(-c2ccccc2)n[nH]1
111.2	Cc1ccc(C2OC3(C(=O)c4ccccc4C3=O)C3C(=O)N(Cc4ccc(Cl)cc4)C(=O)C23)cc1 (configuration not stated)
109.7	Cc1ccc(C)c(N2C(=O)/C(=C/c3ccc([N+](=O)[O-])cc3)C=C2c2ccccc2)c1
115.0	O=C(NC(Cc1c[nH]c2ccccc12)C(=O)O)C(NC(=O)c1ccccc1)=C1CCCCC1 (configuration not stated)
102.0	CCc1onc(C)c1C1CCCN1S(=O)(=O)c1ccc(C(C)(C)C)cc1 (configuration not stated)
103.1	COc1ccc(C2NC(=O)C(=O)/C2=C(/O)c2ccccc2)c(OC)c1 (configuration not stated)
101.0	Cn1c(=O)n(CC(=O)N2CCCC2)c(=O)c2cc(S(=O)(=O)Nc3cccnc3)ccc21
105.8	CCCCOc1ccc(-c2nc(C=Nc3cccc(C(F)(F)F)c3)c(O)o2)cc1
109.3	CCCCOc1ccc(C2C(N3C(=O)c4ccccc4C3=O)C(=O)N2c2ccc(C)cc2)cc1 (configuration not stated)
103.9	COc1ccc(-c2nn(CN3CCCCC3)c(=S)n2-c2ccccc2)cc1OC
112.3	CC1(C)Cc2nc(Cl)c(C(=O)O)cc2CO1
100.9	CNC(=O)c1ccc(-c2nc3cc(NS(=O)(=O)c4c(C)nn(C)c4C)ccc3n2C)cc1
132.2	Cc1cccn2c(=O)c(/C=C3\SC(=S)N(CCCC(=O)O)C3=O)c(NCCc3ccccc3)nc12
112.8	CC(C)CCCC(C)C1CCC2C3CC=C4CC(OC(=O)c5cccc(Cl)c5)CCC4(C)C3CCC12C (configuration not stated)
129.3	Cc1nn(-c2nc3ccccc3[nH]2)c2c1C(c1cc(Cl)ccc1F)CC(=O)N2 (configuration not stated)

# Following part.
GIV Gai3 FP	molecule
102.7	CC(=O)Oc1ccc(/C=C2\N=C(c3cccc(Cl)c3Cl)OC2=O)cc1OC(C)=O
104.3	Cc1ccc(NC(=O)CCc2nc(CSc3nc4ccccc4o3)no2)cc1Cl
105.3	COc1ccc2c(c1)-c1cc(Cl)ccc1S(=O)(=O)N2C(C)=O
106.4	CCCCN(C)S(=O)(=O)c1cc(-c2nc(C)cs2)n(CC(=O)N2CCCCC2)c1
105.8	CC(C)CNC(=O)N1CCC2(C1)C(=O)N(C)c1ccccc12 (configuration not stated)
101.4	O=C(CCc1nc(CSc2nc3ccccc3o2)no1)Nc1ccccc1F
107.8	CSc1cccc(N2C(C)=NS(=O)(=O)c3cccnc32)c1
103.4	CN(C)c1nc2ncn3c(=O)n(CC(=O)NCCC4=CCCCC4)nc3c2s1
113.6	O=C(CN1CCN(CCO)CC1)N1c2ccccc2Sc2ccc(C(F)(F)F)cc21
127.7	N#Cc1c2c(c(NCCc3ccccc3)n3c1nc1ccccc13)CCC2
103.2	CCCS(=O)(=O)N1CCc2c(c(-c3nnc(-c4ccc(F)cc4)o3)nn2C)C1
105.3	CCc1ccc(C(=O)N2CCN(c3cc(=O)n(C)c(=O)n3C)CC2)cc1
104.4	O=C(Nc1cccc(F)c1)c1cccc(Nc2ncc(-c3ccc(F)cc3)cn2)c1
98.8	Cn1c(=O)c2nc(SCCC(=O)O)n(Cc3ccccc3)c2n(C)c1=O
115.6	CCOc1ccc(-n2cc(-c3ccccc3)c3c(NCCc4ccc(S(N)(=O)=O)cc4)ncnc32)cc1
99.8	COCc1nnc(-c2sccc2C)o1
108.0	Cc1ccc(C(=O)Nc2cc(-c3ccccc3)nn2-c2ccccc2)cc1
112.9	COc1ccc(-c2cc(-c3ccccc3)nc(SCC(=O)NC3CC3)c2C#N)cc1
105.7	CCc1onc(C)c1C1CCCN1Cc1cc(OC)c(OC)c(OC)c1 (configuration not stated)
115.4	Cc1ccc(C(=O)N2c3ccccc3N=C(c3ccc(Br)cc3)CC2c2ccccc2)cc1 (configuration not stated)

# Four of these compounds, set out differently:
SMILES	GIV Gai3 FP
Cc1ccc(C(=O)Nc2cc(-c3ccccc3)nn2-c2ccccc2)cc1	108.0
COc1ccc(-c2cc(-c3ccccc3)nc(SCC(=O)NC3CC3)c2C#N)cc1	112.9
CCc1onc(C)c1C1CCCN1Cc1cc(OC)c(OC)c(OC)c1 (configuration not stated)	105.7
Cc1ccc(C(=O)N2c3ccccc3N=C(c3ccc(Br)cc3)CC2c2ccccc2)cc1 (configuration not stated)	115.4

# Remaining list, next part.
GIV Gai3 FP	molecule
106.2	CCOC(=O)C1=C(O)/C(=C/c2ccc([N+](=O)[O-])cc2)SC1=Nc1cccc2ccccc12
102.1	N#CC1=CN(c2ccc(C#N)cc2)c2cc(F)ccc2S1(=O)=O
101.3	Cn1nc(-c2nc(-c3ccccc3)no2)c2c1CCN(S(=O)(=O)c1cccc3nsnc13)C2
109.7	CC(=O)NC(=O)c1cc2c(ccc3ccccc32)oc1=Nc1ccc(F)c(Cl)c1
110.5	COC(=O)c1c(C)oc2c1cc(NS(=O)(=O)c1ccc3c4c(cccc14)C(=O)N3)c1ccccc12
109.7	C=CCOC(=O)C1=C(C)NC(C)=C(C(=O)OCC=C)C1c1cn(-c2ccccc2)nc1-c1ccc(OC)c([N+](=O)[O-])c1
103.7	COc1ccc(-c2cc(C(F)(F)F)n3ncc(C(=O)Nc4cc5c(cc4C(C)=O)OCO5)c3n2)cc1OC
107.9	O=S(=O)(c1ccc(-c2nnc(C3CCC3)o2)o1)N1CCCCC1
104.1	COc1ccc(OCC(=O)NCC(=O)NCc2cscn2)cc1
108.3	O=C1CCc2c[nH][n+]3c2C1=C(NC(=O)c1ccccc1)N[B-]3(c1ccccc1)c1ccccc1
109.6	O=C1/C(=C\c2cn(-c3ccccc3)nc2-c2cccnc2)NC(=S)N1c1ccccc1
100.9	CCc1cc(C2CCCN2S(=O)(=O)c2cccc3nsnc23)on1 (configuration not stated)
128.8	CCOC(=O)c1c(NC(=O)c2sc3ccccc3c2Cl)sc2c1CCN(C)C2
93.7	Cc1ccnc(Nc2nc(-c3cc(C)ccc3C)cs2)c1

# A second format for some results above:
structure	GIV Gai3 FP
O=C1CCc2c[nH][n+]3c2C1=C(NC(=O)c1ccccc1)N[B-]3(c1ccccc1)c1ccccc1	108.3
Cn1nc(-c2nc(-c3ccccc3)no2)c2c1CCN(S(=O)(=O)c1cccc3nsnc13)C2	101.3
N#CC1=CN(c2ccc(C#N)cc2)c2cc(F)ccc2S1(=O)=O	102.1
CC(=O)NC(=O)c1cc2c(ccc3ccccc32)oc1=Nc1ccc(F)c(Cl)c1	109.7
